# From PubChem BioAssay
# RanGTP-Imp inh: inhibitors of RanGTP-importin-beta interaction, primary screen, biochemical, FRET, CFP-Ran, YFP-importin-beta, homogeneous; cell-free CFP-Ran/YFP-importin-beta FRET ratio; inhibition, % (no concentration beside the values); AID 2216, 2009; hit rate 1.1% among 300,000; Ran GTPase (GTP-bound) - importin-beta complex;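 active = most replicates above 15%; inconclusive = exactly half above 15%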;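 note: 0% = DMSO wells and 100% = Ran loaded with GDP instead of GTP; wells of about 40 µL received 100 nL stock; the first replicate is given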
# Bfl-1 A1 inh: caspase 3/7 activation in MEF A1-2A-BIM cells, primary screen, A1 inhibitor project, cell-based, luminescence, HTS; Caspase-Glo 3/7 luminescence, 3 h; percent of clofoctol response, vehicle zero; caspase activation, % (no concentration beside the values); hit rate 0.066% among 330,000;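 active = over half of replicate activation scores above 10%, or exactly half above 10 with the replicate mean above 10; inconclusive = replicate mean below 10 yet half the replicates above 10; inactive = over half of replicates below 10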;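 note: wells of about 30 µL received 50 nL stock; many hits fall short of the cut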
# Beta cell apopt: inhibitors of cytokine-induced beta cell apoptosis, primary screen, luminescence. INS-1E cytokine-induced death, ATP luminescence, 48 h; percent of positive-control rescue, neutral wells zero. protection from apoptosis, % (test concentration not listed). hit rate 0.8% among 300,000. AID 435005, 2010;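 active = all replicates at 75% or more, or half of them and the mean; inconclusive = half reach 75% but not the mean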;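 note: 0% = cytokine-treated negative control wells and 100% = positive control rescue; higher means more ATP so stronger rescue from cytokine killing; wells of about 40 µL received 100 nL stock; the first replicate is given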
# AF4-AF9 inh: inhibitors of AF4 peptide binding to AF9, primary screen, biochemical, AlphaScreen, biotin-AF4 peptide, FLAG-AF9, single point; hit rate 0.47% among 350,000; inhibition, % at 10 µM; AID 651704, 2012;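 active = every replicate reaching a set inhibition limit, whatever the replicate mean, cut at about 25% in these data; inconclusive = mean inhibition reaches that limit but some replicates miss it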;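 note: 0% = plate neutral control median and 100% = total signal loss; the record names both 10 and 1 µM as test concentration; the first replicate is given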
# T cruzi inh: inhibitors of intracellular T. cruzi growth, primary screen, luminescence, NIH3T3 host cells | T. cruzi beta-gal in NIH3T3, 90 h | hit rate 1.4% among 300,000 | inhibition, % (concentration not given with the values);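 active = mean inhibition across valid replicates above about 55%, limit read from the data; inconclusive = mean below that limit but half or more replicates reach it; inactive = mean below it, under half of replicates reach it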;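 note: signal also drops with host cell toxicity which is not excluded here; 0% = plate median of DMSO wells and 100% = zero luminescence signal; higher percent means less beta-gal luminescence so fewer parasites; stock transfer was 50 nL into about 50 µL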
# LANA-H2B inh: blockers of LANA interaction with H2A/H2B – biochemical, FP readout, HTS, primary screen; AID 2629, 2010; inhibition, % (test concentration not listed); cell-free LANA-H2A/H2B peptide, fluorescence polarization; hit rate 0.6% among 320,000; in the data active = inhibition mostly above about 10%, no sharp cut-off; inactive = mostly below about 6.7%;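 note: stock transfer was 7.5 nL into about 10 µL; 0% = median of vehicle wells and 100% = median of positive control wells; one replicate is shown; the record names a cut of 25% in any replicate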
# Target sequence (Q9QR71 whole entry, looked up): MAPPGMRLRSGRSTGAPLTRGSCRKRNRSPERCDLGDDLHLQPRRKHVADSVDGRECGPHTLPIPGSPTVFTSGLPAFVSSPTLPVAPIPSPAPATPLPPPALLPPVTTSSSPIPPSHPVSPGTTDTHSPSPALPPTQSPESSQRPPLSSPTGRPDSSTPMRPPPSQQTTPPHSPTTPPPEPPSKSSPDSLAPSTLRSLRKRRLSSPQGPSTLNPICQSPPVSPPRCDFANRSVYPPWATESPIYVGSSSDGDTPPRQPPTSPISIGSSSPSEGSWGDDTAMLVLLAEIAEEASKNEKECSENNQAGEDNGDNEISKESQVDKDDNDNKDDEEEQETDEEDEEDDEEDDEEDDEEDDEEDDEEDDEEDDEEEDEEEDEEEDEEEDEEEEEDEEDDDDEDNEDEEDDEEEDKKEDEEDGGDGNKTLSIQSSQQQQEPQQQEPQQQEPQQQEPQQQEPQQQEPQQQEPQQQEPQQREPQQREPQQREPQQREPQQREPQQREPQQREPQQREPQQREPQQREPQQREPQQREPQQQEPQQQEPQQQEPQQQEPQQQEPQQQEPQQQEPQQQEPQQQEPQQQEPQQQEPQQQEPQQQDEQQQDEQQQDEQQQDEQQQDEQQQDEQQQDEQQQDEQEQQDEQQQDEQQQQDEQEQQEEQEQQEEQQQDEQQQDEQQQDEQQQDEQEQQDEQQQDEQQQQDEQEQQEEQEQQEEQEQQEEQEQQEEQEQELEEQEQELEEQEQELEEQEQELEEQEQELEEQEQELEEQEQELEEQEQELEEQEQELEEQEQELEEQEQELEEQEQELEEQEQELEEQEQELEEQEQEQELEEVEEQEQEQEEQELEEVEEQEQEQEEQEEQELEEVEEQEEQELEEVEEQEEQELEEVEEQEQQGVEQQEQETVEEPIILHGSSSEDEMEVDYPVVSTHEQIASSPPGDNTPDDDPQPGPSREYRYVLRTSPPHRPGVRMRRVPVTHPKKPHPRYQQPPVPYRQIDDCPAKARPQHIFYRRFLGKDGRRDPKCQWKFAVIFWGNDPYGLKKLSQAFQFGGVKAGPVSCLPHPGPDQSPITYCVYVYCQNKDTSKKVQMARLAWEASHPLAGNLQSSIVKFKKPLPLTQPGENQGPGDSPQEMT
# Calb FLC: C. albicans growth inhibition with fluconazole, primary screen, CaCi-2 strain, Alamar Blue fluorescence; C. albicans CaCi-2 (fluconazole-resistant clinical isolate) + fluconazole, 48 h; growth inhibition, % (no concentration beside the values); hit rate 0.57% among 300,000;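 active = most replicates above 75%; inconclusive = exactly half above 75%; inactive = most below 75%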;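 note: all wells also contain fluconazole at 8 µg/ml as a sub-toxic cotreatment; 0% = median of DMSO wells and 100% = median of geldanamycin control wells; wells of about 8 µL received 7.5 nL stock; the first replicate is given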
# Vif TR-FRET: inhibitors of Vif binding to APOBEC3G peptide, primary screen, biochemical, TR-FRET, GST-Vif 1-94, biotin-A3G peptide, dose response retest (AID 1117319); hit rate 0.57% among 260,000; inhibition, %, or IC50 in µM where a hit was titrated; TR-FRET GST-Vif / biotin-A3G peptide binding; higher % means a stronger effect; test concentration not given here; strong numbers were not always called active; Virion infectivity factor (Human immunodeficiency virus type 1 group M subtype B (isolate …;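 active = above the screen mean plus three standard deviations and confirmed in dose response; inconclusive = results disagree or hit not tested in dose response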;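 note: Vif residues 1-94 fused to GST binding biotinylated APOBEC3G peptide 110-148; 0% = full assay without inhibitor and 100% = GST in place of GST-Vif; retest series ran down from 100 µM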
# The depositor's hits bear a star; ? = inconclusive; · = not tested or not shown.
SMILES,RanGTP-Imp inh,Bfl-1 A1 inh,Beta cell apopt,AF4-AF9 inh,T cruzi inh,LANA-H2B inh,Calb FLC,Vif TR-FRET
O=C(NCc1nnc(SCC(=O)N2CCCCC2)o1)c1c(F)cccc1F,1.1,0.0,0,1.2,4,0.5,-2,·
C=C(C)Cn1c(Sc2nnc(C)s2)nc2c1c(=O)[nH]c(=O)n2C,-0.7,0.7,-1,·,6,1.4,-1,-2%
COc1ccc(S(=O)(=O)O/N=C2\CCSc3ccc(C)cc32)cc1,-0.4,0.6,·,·,-5,3.6,-5,0%
CCCOC1CCCN(C(=O)c2ccc(OC3CCN(C(=O)COC)CC3)cc2)C1 (stereo not given),5.2,0.0,2,-1.8,-21,1.1,3,·
CC1CCN(c2nc(-c3ccccc3O)nc3ccccc23)CC1,3.9,0.1,-6,·,-30,0.5,0,-7%
COc1ccc(Nc2cc(Nc3cccc(OC)c3)ncn2)cc1,?,-1.7,-2,-1.1,43,7.4,-5,-4%
O=C(Nc1ccc(NC(=S)NC(=O)c2ccccc2F)cc1)c1cccs1,-2.1,-1.2,6,2.0,33,3.7,60,-5%
COc1cccc(/C=N/NC(=O)C(=O)NCc2cccnc2)c1O,-0.6,0.3,-2,·,6,-3.4,-3,·
CC(=O)c1ccc(N2CCCC2)c(F)c1,0.9,0.1,-1,·,-8,3.3,-3,6%
COc1cc(NC(=O)c2cc(OC)c(OC)c(OC)c2)ccc1NC(=O)c1cccs1,?,0.5,7,-5.0,15,-1.1,-3,·
NS(=O)(=O)c1ccc(NC(=O)COC(=O)c2cc3ccccc3oc2=O)cc1,-2.3,0.4,-6,-18,5,0.8,3,-2%
O=C(NC1CCCCCC1)C1CCN(S(=O)(=O)N2CCC3(CC2)OCCO3)CC1,0.9,-0.5,-2,3.9,-17,-3.5,7,-2%
CC1(C)CC(=O)C2=C(C1)OC(N)=C(C#N)C2c1ccsc1 (stereo not given),0.4,-1.0,-5,·,-6,4.2,0,4%
CC12CC3CC(C)(C1)CC(C(=O)NCc1cccnc1)(C3)C2,-1.9,0.5,1,4.6,-3,-1.5,-13,5%
COc1ccc(C)cc1N(C(=O)c1ccc(C#N)cc1)C1=NC(C)(C)CS1,0.1,0.5,4,-2.0,-12,2.3,-10,4%
CCOCCCNC(=O)C(NC(=O)Cc1cccs1)c1ccccc1 (stereo not given),3.1,1.9,1,0.7,-10,-2.3,3,·
COc1ccccc1NC(=O)N1CCCC1C(=O)Nc1ccc2c(c1)OCO2 (stereo not given),-0.3,0.7,0,·,-3,4.2,-2,14%
Nc1cc(=O)[nH]c(SCC(=O)Nc2ncc(C(F)(F)F)cc2Cl)n1,1.9,-0.1,2,-2.5,0,2.0,35,-3%
Cc1cc(C)c2c(=O)n(CC(=O)Nc3cccc(F)c3)sc2n1,-0.5,-1.7,-2,·,49,-0.7,11,-15%
COc1ccccc1C1SCCN1C(=O)c1ccc([N+](=O)[O-])cc1 (stereo not given),3.3,0.1,-2,-9.7,2,-1.8,-12,23%
COc1cc(OC)cc(C(=O)OC/C(O)=C(\C#N)c2nc3ccccc3[nH]2)c1,-3.7,-1.5,101*,-0.1,-14,-3.3,38,-4%
CCOC(=O)c1sc(=S)n(C)c1NC(=O)c1ccccc1,-0.5,-0.5,0,·,1,-2.1,-31,-9%
COc1ccc2nc(-c3ccccc3)cc(C(=O)OCC(=O)N3CCCCC3)c2c1,·,-1.8,4,-4.5,·,1.5,·,1%
CCCCC(=O)N1CCN(c2nc3ccc(F)cc3s2)CC1,3.4,-17,·,-3.3,-14,-5.1,5,·
O=S(=O)(c1ccc(NC(=S)NCCC(c2ccccc2)c2ccccc2)cc1)N1CCOCC1,-0.4,0.5,4,·,61*,-3.3,18,-5%

# The listing continues:
SMILES,RanGTP-Imp inh,Bfl-1 A1 inh,Beta cell apopt,AF4-AF9 inh,T cruzi inh,LANA-H2B inh,Calb FLC,Vif TR-FRET
CC1(C)O[C@@H]2[C@H](O1)[C@@H](CO)O[C@H]2n1cc(Br)c(=O)[nH]c1=O,·,-1.2,5,-6.1,·,-4.4,·,·
CCOC(=O)Nc1ccc2c(c1)nc1n2CCN(CCOC)C1,3.8,1.0,-4,-3.1,-18,-2.0,8,-7%
Cc1nn(C)c(Oc2ccccc2)c1[N+](=O)[O-],0.2,-0.3,·,·,4,1.5,-5,?
Cc1ncoc1C(=O)Nc1cccc(Cl)c1C,0.7,-0.4,-6,·,-1,5.4,-5,-3%
Cc1cc(O)c(C(=O)/C=C/c2cccc([N+](=O)[O-])c2)c(=O)o1,-1.6,-0.6,-10,-7.3,-3,16*,10,30%
C=CCNc1nc(N)c([N+](=O)[O-])c(NC2CCCCC2)n1,-1.2,0.6,-5,-4.0,-19,2.7,7,-9%
Cc1ccc(-c2nnn(CC(=O)N3CCC(C)CC3)n2)o1,0.9,0.3,-9,·,8,2.3,-5,23%
COc1cc2c(cc1OC)C(c1cccs1)CC(=O)N2 (stereo not given),6.6,·,-4,·,-14,5.2,-6,18%
Cn1c(O)c(N=NC(=O)CNC(=O)/C=C/c2ccccc2)c2ccccc21,-0.7,-0.1,11,1.0,10,-0.3,·,·
CCCc1cc(=O)[nH]c(SCC(=O)c2c(N)n(C)c(=O)n(C)c2=O)n1,?,0.9,1,·,-20,5.7,-25,-1%
Cc1nn(C)cc1C(C(=O)NC1CCCCC1)N(C(=O)c1cnccn1)c1ccc(Oc2ccccc2)cc1 (stereo not given),1.8,-0.2,-7,-1.4,18,3.7,-2,-9%
C=CCNC(=O)c1cccc(C(F)(F)F)c1,-0.2,0.3,1,·,-17,-2.0,-30,5%
Cc1cc(C(c2ccc(O)cc2)c2cc(C)c(O)cc2C)c(C)cc1O,-1.8,0.0,13,2.5,7,-5.5,?,2%
Cc1cccn2c(=O)c(/C=N/O)c(N3CCCC3)nc12,0.2,-1.2,-5,·,-1,1.7,0,-5%
CCc1nc(C)cn1S(=O)(=O)c1cc(F)ccc1OC,-2.7,1.0,1,-1.2,-29,5.1,7,-3%
CN(C)CCCNCCCNC(=O)c1ccncc1,-0.9,2.4,-4,·,9,-2.3,9,0%
Clc1ccc(Cn2nnc(-c3ccccc3)n2)cc1,-1.0,0.1,-3,·,6,-6.5,-13,·
Nn1c(COc2cccc(Cl)c2)nc2ccccc2c1=O,-2.0,-2.2,3,·,-9,-2.0,34,·
CCOc1ccc(NC(=O)c2ccccn2)cc1,-0.9,-7.9,17,7.7,-5,10,-13,·
CC(=O)Nc1nonc1-n1nnc(C(=O)NCc2ccccc2)c1C,0.5,-0.1,1,·,-11,3.6,7,2%
COc1ccc(-c2cc(C(F)(F)F)nc(SCC(=O)Nc3ccc4c(c3)OCO4)n2)cc1,7.6,-0.7,12,·,-9,0.8,4,·
C/C(N)=C(/C#N)C(=O)COC(=O)C1CCN(C(=O)c2ccc(Cl)cc2)CC1,0.9,0.4,-4,0.9,-17,0.1,-14,-1%
Cc1ccc(CN2CCN(/N=C/c3ccc(C(=O)O)cc3)CC2)c(C)c1,2.0,0.3,-8,0.3,-19,5.9,-5,1%
CCOC(=O)c1sc(N/N=C/c2cccc(C)c2)nc1C,9.6,-0.2,4,·,19,2.1,0,-3%
COC(=O)C1CCN(C(=O)COC(=O)c2ccc3[nH]c4c(c3c2)CCCC4)CC1,·,0.1,0,2.0,-1,-0.7,0,6%
CC(C)NC(=O)C(c1ccc(F)cc1)N(C(=O)CCC(=O)Nc1ccccn1)c1cccc(F)c1 (stereo not given),-3.6,-0.3,0,-13,-21,-4.1,-2,·
O=C(N/N=C/c1cn(-c2cccs2)nc1-c1ccccc1)c1ccccc1Cl,4.3,-0.6,5,2.8,16,3.8,3,11%
O=C1CS/C(=N/N=C2C3CC4CC(C3)CC2C4)N1,-1.1,2.3,0,·,1,6.5,-31,·

# Taken from above for reference:
SMILES,RanGTP-Imp inh,Bfl-1 A1 inh,Beta cell apopt,AF4-AF9 inh,T cruzi inh,LANA-H2B inh,Calb FLC,Vif TR-FRET
CCc1nc(C)cn1S(=O)(=O)c1cc(F)ccc1OC,-2.7,1.0,1,-1.2,-29,5.1,7,-3%
CN(C)CCCNCCCNC(=O)c1ccncc1,-0.9,2.4,-4,·,9,-2.3,9,0%
Clc1ccc(Cn2nnc(-c3ccccc3)n2)cc1,-1.0,0.1,-3,·,6,-6.5,-13,·
Nn1c(COc2cccc(Cl)c2)nc2ccccc2c1=O,-2.0,-2.2,3,·,-9,-2.0,34,·
CCOc1ccc(NC(=O)c2ccccn2)cc1,-0.9,-7.9,17,7.7,-5,10,-13,·
CC(=O)Nc1nonc1-n1nnc(C(=O)NCc2ccccc2)c1C,0.5,-0.1,1,·,-11,3.6,7,2%
COc1ccc(-c2cc(C(F)(F)F)nc(SCC(=O)Nc3ccc4c(c3)OCO4)n2)cc1,7.6,-0.7,12,·,-9,0.8,4,·
C/C(N)=C(/C#N)C(=O)COC(=O)C1CCN(C(=O)c2ccc(Cl)cc2)CC1,0.9,0.4,-4,0.9,-17,0.1,-14,-1%
Cc1ccc(CN2CCN(/N=C/c3ccc(C(=O)O)cc3)CC2)c(C)c1,2.0,0.3,-8,0.3,-19,5.9,-5,1%
CCOC(=O)c1sc(N/N=C/c2cccc(C)c2)nc1C,9.6,-0.2,4,·,19,2.1,0,-3%
COC(=O)C1CCN(C(=O)COC(=O)c2ccc3[nH]c4c(c3c2)CCCC4)CC1,·,0.1,0,2.0,-1,-0.7,0,6%
CC(C)NC(=O)C(c1ccc(F)cc1)N(C(=O)CCC(=O)Nc1ccccn1)c1cccc(F)c1 (stereo not given),-3.6,-0.3,0,-13,-21,-4.1,-2,·
O=C(N/N=C/c1cn(-c2cccs2)nc1-c1ccccc1)c1ccccc1Cl,4.3,-0.6,5,2.8,16,3.8,3,11%
O=C1CS/C(=N/N=C2C3CC4CC(C3)CC2C4)N1,-1.1,2.3,0,·,1,6.5,-31,·
